Rango release inh: inhibitors of RanGTP-induced Rango-importin beta complex dissociation | Biochemical FRET Rango-importin beta, RanGTP-induced dissociation | 340,000 tested, 0.071% active | O95149+P62826 | Potency, µM (series often up to 46.1 µM), for inactives: at the top dose activity change, negative = inhibition; active means falling FRET ratio curve, often poorly fitted, with flat reads before Ran was added; inconclusive means other falling curves, or compound fluorescence or quenching; inactive means flat or rising ratio curve;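 also: potency is read from the fitted curve at half-maximal effect; % of control where 0% means no effect; nearly all actives have a fitted effect of over 45% in size; -100% = wells without RanGTP and RCC1; the record marks most hits as doubtful in a second field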
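Rango (0.1 uM)–importin beta (0.25 uM) complex; RanGTP-RCC1 trigger; 45 min RT; CFP/YFP FRET read.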
Rango complex inh: prevents formation of the Rango-importin beta complex. 340,000 tested, 0.031% active. Q14974. Potency, µM (titrated, usually from 92.2 µM), for the others: top-dose inhibition of complex formation. Rango CFP/YFP FRET sensor + importin beta, 45 min. AID 540263; active = rising FRET ratio curve, often small or poorly fitted; inconclusive = mostly compound fluorescence or quenching in the first reads; inactive = flat curves in all reads;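 also: potency is read from the fitted curve at half-maximal effect; 0% = DMSO wells and 100% = buffer wells lacking importin beta; nearly all actives have a fitted effect of over 15% in size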
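Inhibition scored from the CFP 486 nm/YFP 530 nm FRET ratio 45 min after adding 0.125 microM importin beta to 50 nM Rango biosensor preincubated 5 min with compound (room temperature, PBS with DTT, Tween-20, BSA). No-importin wells as positive control.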
miR-21 reporter: raises the signal of a miR-21 reporter; 340,000 tested, under 10 active; HeLa miR-21 FLuc reporter, luciferase, 48 h; Potency, µM (series often up to 38.3 µM), inactives show at the highest dose reporter change, positive = more light; active = well fitted rising curve with a large enough effect; inconclusive = small, poorly fitted or top-dose-only effect; inactive = no such curve, though single readings can be large or run the other way;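 also: % of control where 0% means no effect; miR-21 action dims this reporter so a rising signal means less miR-21 action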
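Compounds were titrated across several concentrations (up to approximately 40 uM) and incubated 48 hours with HeLa miR-21-FLuc reporter cells (miR-21 target sequence downstream of FLuc, endogenous miR-21). Readout was firefly luciferase luminescence after lytic detection reagent.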
GLA inh pH 4.5: inhibitors of human alpha-galactosidase A at pH 4.5. P06280. purified enzyme, 4-MU-alpha-Gal fluorescence, pH 4.5. activity change, negative = inhibition, % at 105 µM. 230,000 tested, under 10 active; inconclusive = small, poorly fitted or top-dose-only inhibition, or a rising curve; inactive = flat fitted curve, though single readings scatter; no compound was filed as active;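 also: 0% = full activity with enzyme and -100% = basal without enzyme; dose as in the result columns while the protocol names 77 µM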
Target sequence (P06280 whole entry, looked up): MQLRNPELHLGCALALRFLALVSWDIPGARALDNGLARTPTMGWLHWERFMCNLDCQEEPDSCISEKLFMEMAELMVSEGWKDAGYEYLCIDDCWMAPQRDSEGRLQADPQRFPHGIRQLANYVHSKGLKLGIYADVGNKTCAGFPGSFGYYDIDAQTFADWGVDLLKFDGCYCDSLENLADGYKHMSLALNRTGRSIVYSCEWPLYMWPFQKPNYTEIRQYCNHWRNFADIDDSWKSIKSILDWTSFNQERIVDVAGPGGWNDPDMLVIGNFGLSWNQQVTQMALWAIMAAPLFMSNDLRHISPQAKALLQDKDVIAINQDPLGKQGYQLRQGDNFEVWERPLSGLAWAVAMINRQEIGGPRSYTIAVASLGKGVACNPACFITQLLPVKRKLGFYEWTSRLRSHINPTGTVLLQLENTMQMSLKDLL
The depositor's hits bear a star; ? = inconclusive; . = no result given; & = joins results of further samples.

GLA inh pH 4.5	Rango complex inh	Rango release inh	miR-21 reporter	Structure
-12	-4.0%	-24%	-16%	O=c1oc2cc(O)ccc2c2oc3cc(O)ccc3c12
.	-1.7%	25%	-2%	Cc1cc(C)c(OCCNCc2ccccc2)c(C)c1
-2	0.5%	7%	-33%	Cc1cccc(C(=O)NNC(=O)c2ccc(Cl)cc2)c1O
3	2.2%	14%	-3%	COc1cc2nc(=S)n3[nH]c(COc4ccccc4C)nc3c2cc1OC
7	0.0%	-2%	-9%	CCOc1ccc(Cn2nnc(C(=O)Nc3cc(C)cc(C)c3)c2N)cc1
-4	?	4%	1%	O=[N+]([O-])c1ccc(N2CCC(=NOCc3ccc(Cl)cc3)CC2)cc1
-7	-5.7%	-11%	-11%	COc1ccc(CCNC(=O)CSc2nnc(-c3ccc(F)cc3)c3ccccc23)cc1OC
?	?	?	1%	CCCCc1cc(=O)oc2c(CN3CCCC3)c(O)c(Cl)cc12

Entries of single compounds as entered above. Values in the order: GLA inh pH 4.5	Rango complex inh	Rango release inh	miR-21 reporter
O=[N+]([O-])c1ccc(N2CCC(=NOCc3ccc(Cl)cc3)CC2)cc1 is listed as -4	?	4%	1%
O=c1oc2cc(O)ccc2c2oc3cc(O)ccc3c12 is listed as -12	-4.0%	-24%	-16%

More results
GLA inh pH 4.5	Rango complex inh	Rango release inh	miR-21 reporter	Structure
.	0.7%	1%	.	COc1ccc(/C=C/C(=O)NC2CCS(=O)(=O)C2)cc1 (configuration not stated)
.	-1.5%	36%	-3%	O=C(NCc1ccco1)c1cc(S(=O)(=O)N2CCOCC2)ccc1Br
-11	0.6%	-9%	0%	COC(=O)CSc1nc(-c2ccccc2)nc2ccc(F)cc12
.	1.6%	8%	.	O=c1cc2c(c(-c3ccccc3)n1Cc1ccccc1)[C@H](CCO)NC2
.	0.6%	-3%	7%	NC(=O)CC(NC(=O)c1cccc(Br)c1)c1ccc(N2CCCCCC2)c([N+](=O)[O-])c1 (configuration not stated)
.	?	-7%	-1%	CN1CCN(C(=O)c2cnn(-c3ccccc3)c2NC(=O)c2ccc([N+](=O)[O-])cc2)CC1
-21	1.4%	22%	0%	CCCCC(=O)Nc1ccc(C(=O)NNC(=O)CCc2ccccc2)cc1
2	3.0%	21%	2%	COC(=O)c1ccc(NC(=S)N2CCN(Cc3ccccc3Cl)CC2)cc1
.	0.1%	-13%	5%	O=C(CNC(=O)c1[nH]cnc1C(=O)NC(c1ccccc1)c1ccccc1)OCc1ccccc1
-5	-1.2%	-2%	-3%	c1ccc(-n2c(-c3ccncc3)nnc2-c2cccs2)cc1
2	-4.9%	5%	-5%	CCOC(=O)c1oc2ccccc2c1NC(=O)c1ccc(S(=O)(=O)N(C)C)cc1
.	0.6%	-7%	.	Cc1cc(C(=O)N2CCc3ccccc3C2)c(C)o1
.	-0.7%	0%	.	CCN(CC(=O)Nc1c(F)cccc1F)C(=O)CCC(=O)c1ccc(C)cc1
-4	4.6%	11%	-18%	Cc1ccccc1CC1(CO)CCCN(C(=O)c2cc(-c3ccccc3)no2)C1 (configuration not stated)
2	4.6%	4%	-2%	O=C(Cc1ccccc1)NNC1CC(=O)N(c2ccc(Oc3ccccc3)cc2)C1=O (configuration not stated)
5	1.7%	14%	1%	CN(Cc1nc(Cc2ccccc2F)no1)[C@@H]1CS(=O)(=O)C[C@H]1O

Part of the list above in order of SMILES length, high to low.
GLA inh pH 4.5	Rango complex inh	Rango release inh	miR-21 reporter	Structure
.	0.1%	-13%	5%	O=C(CNC(=O)c1[nH]cnc1C(=O)NC(c1ccccc1)c1ccccc1)OCc1ccccc1
2	-4.9%	5%	-5%	CCOC(=O)c1oc2ccccc2c1NC(=O)c1ccc(S(=O)(=O)N(C)C)cc1
2	4.6%	4%	-2%	O=C(Cc1ccccc1)NNC1CC(=O)N(c2ccc(Oc3ccccc3)cc2)C1=O (configuration not stated)
-4	4.6%	11%	-18%	Cc1ccccc1CC1(CO)CCCN(C(=O)c2cc(-c3ccccc3)no2)C1 (configuration not stated)
2	3.0%	21%	2%	COC(=O)c1ccc(NC(=S)N2CCN(Cc3ccccc3Cl)CC2)cc1
.	0.6%	-7%	.	Cc1cc(C(=O)N2CCc3ccccc3C2)c(C)o1

Later entries
GLA inh pH 4.5	Rango complex inh	Rango release inh	miR-21 reporter	Structure
.	0.6%	29%	-3%	CCOC(=O)Cn1ccc(NC(=O)c2ccc3c(c2)OCO3)n1
.	0.4%	-1%	.	O=C(NCC(=O)N1CCN(Cc2ccccc2)CC1)c1cc(Cl)cc([N+](=O)[O-])c1
.	-0.7%	0%	.	COCc1ccc(-c2c(-c3ccccc3OC)sc3cc4c(cc23)OCO4)cc1
1	?	?	0%	CCOC(=O)C1CCCN(c2nc3ccccc3nc2C(C#N)C(=O)OCC)C1 (configuration not stated)
.	0.9%	2%	2%	CC(C)(C)OC(=O)N[C@@H](Cc1ccccc1)C(=O)NCC1CCC(C(=O)N[C@@H](CC(=O)O)C(=O)O)CC1 (some centres not stated)
0	0.0%	-7%	-7%	CC1C(=O)C(C)C(c2ccc3c(c2)OCO3)NC1c1ccc2c(c1)OCO2 (configuration not stated)
1	3.3%	-15%	-15%	Cc1[nH]c2ccc(-c3n[nH]c(=S)n3-c3ccc(Br)cc3)cc2c1C
-7	-1.3%	-7%	1%	COc1cccc2cc(C(C)N(CCCN3CCOCC3)C(=S)Nc3cc(C)cc(C)c3)oc12 (configuration not stated)
8	0.8%	1%	.	CCOC(=O)N1C2=NC(C(=O)OC)=C(C(=O)OC)[C@@H]3N(C)c4ccc(OC)cc4[C@]23C[C@H]1C(=O)OC
?	-1.6%	-1%	-70%	COc1ccccc1NC(CC(=O)c1ccccc1)C(=O)OCC(=O)c1ccc(C)cc1 (configuration not stated)
.	?	-13%	.	CCC(CO)Oc1cc(NCc2ccccn2)c2ncn(C(C)C)c2c1 (configuration not stated)
3	-2.4%	0%	-2%	COc1cc(OC)cc(-c2nc3nc(C)c(CCC(=O)NCc4ccco4)c(C)n3n2)c1
-3	2.6%	16%	4%	O=C(O)c1cccc(Cl)n1
5	?	?	-6%	Cc1ccc(C2CC(c3cccc(Cl)c3)n3nc(N)nc3N2)cc1 (configuration not stated)
.	0.1%	?	2%	O=C(CC1C(=O)NCCN1Cc1ccc(Cl)c(F)c1)NC1CCC1 (configuration not stated)
.	-1.5%	-8%	14%	Cc1cccc2c(C(=O)N3CCN(c4ccccn4)CC3)cc(-c3cccc(Br)c3)nc12
-5	-2.0%	3%	-1%	CC1CCN(C(c2ccccc2)c2nnnn2C(C)(C)C)CC1 (configuration not stated)
1	0.3%	8%	11%	Cc1ccc(N/C(=N/S(=O)(=O)c2cccs2)c2ccccc2)c(C)c1
.	-0.9%	-4%	.	COc1cccc(CNC(=O)COC(=O)c2c(C)nn(-c3ccccc3)c2Cl)c1
-2	8.2%	30%	-10%	Cc1ccc(-c2nc3ccccn3c2NC(=O)c2ccco2)cc1
2	-0.4%	2%	-95%	Cc1ccsc1/C=N/Nc1ncnc2nc[nH]c12
-2	5.5%	1%	-5%	CCOc1ccc(NC(=O)COC(=O)C23CC4CC(CC(C4)C2)C3)c([N+](=O)[O-])c1
5	1.0%	0%	-4%	O=C(Oc1coc(CSc2ncccn2)cc1=O)c1cccc([N+](=O)[O-])c1
-3	-0.6%	2%	0%	O=C(NC1CCS(=O)(=O)C1)c1cnccn1 (configuration not stated)
3	-1.1%	-14%	-5%	CCN(CC)C(=S)SCC(=O)Nc1ccc(F)cc1
-5	0.0%	5%	-15%	CCOC(=O)c1cnc(SC2CC(=O)N(c3cccc(OC)c3)C2=O)nc1N (configuration not stated)
.	-3.9%	-14%	0%	CN(CCc1ccccn1)C1CCCN(S(=O)(=O)c2ccc(F)c(Cl)c2)C1 (configuration not stated)
-7	-2.7%	5%	-12%	CC(/C=C/c1ccccc1F)=N\NC(=O)c1ccc(Cl)cc1
-3	-0.9%	-4%	1%	N#C/C=C\Oc1ccc(Cl)cc1N
1	-0.2%	1%	-4%	c1coc(-c2nc3c4c5c(sc4ncn3n2)CCCC5)c1
.	5.5%	12%	.	CCN(CC(=O)Nc1ccc2c(c1)OCCO2)C(=O)CC(NC(C)=O)c1ccccc1 (configuration not stated)
-22	-2.4%	0%	-4%	O=C(COc1cccc(C(F)(F)F)c1)Nc1ccc(S(=O)(=O)N2CCCC2)cc1
-10	-7.0%	1%	-16%	O=C1CCN(C(=O)Nc2cccc(Cl)c2)N1
3	-0.1%	11%	0%	O=C(CS(=O)(=O)Cc1ccccc1)N1CCN(C(=O)c2ccco2)CC1
.	-4.7%	14%	-8%	N#Cc1sc(NCc2ccccn2)nc1Cl
3	-2.4%	6%	-12%	Cc1nnc(SCCc2ccccc2)[nH]c1=O
-12	1.1%	2%	-4%&-2%	COc1ccc(N(C)C(=O)c2cc3c(s2)-c2c(C)cccc2OC3)c(OC)c1
1	5.3%	-7%	5%	CC(C)CCN1C(=O)CCC1(C)C(=O)NC1CCCCCCC1 (configuration not stated)
0	3.6%	-9%	0%	Cc1ccc(NC(=O)c2ccc(N3C(=O)C4CC=C(Cl)CC4C3=O)cc2)cc1 (configuration not stated)
.	-0.5%	-20%	-1%	Cc1cc(OC(=O)c2ccccc2F)c([N+](=O)[O-])c(=O)[nH]1
7	-5.5%	-12%	-4%	O=C(CCc1ccccn1)N1CCCC(CNS(=O)(=O)c2cccs2)C1 (configuration not stated)
-27	-0.7%	17%	17%	COc1cc(C(CCN2CCCCC2)c2c(OC)cc(OC)c3c(-c4ccccc4)cc(=O)oc23)cc(OC)c1OC (configuration not stated)
-4	2.5%	-4%	0%	CCOC(=O)CNC(c1ccccc1)c1cc(Br)ccc1NC(=O)OCC (configuration not stated)
-4	.	.	-26%	CCOc1ccc2nc(C)cc(Nc3ccc(N4CCOCC4)cc3)c2c1
.	-1.3%	-3%	-4%	Cc1ccc(-c2nc(CS(=O)CC(=O)NCc3ccc(F)cc3)c(C)o2)cc1 (configuration not stated)
-6	2.9%	-14%	1%	O=C(O)C(Cc1ccccc1)N1C(=O)/C(=C/c2cccnc2)SC1=S (configuration not stated)
-1	?	9%	-51%	N#CC(C(=O)c1ccccc1)=C1SCCS1
.	0.7%	1%	.	COc1cc(OC)c(/C=C2\C(=O)Nc3ccccc32)c(OC)c1
.	1.1%	-12%	.	CCCn1nc(C(=O)N(C)CC(=O)Nc2ccc(OCC)c(OCC)c2)c2ccccc2c1=O
4	-1.9%	23%	-7%	COc1cc(OC)cc(C(=O)NC(C)c2cnn(-c3ccccc3C)c2C)c1 (configuration not stated)
.	1.3%	-29%	.	CN(C)CC/C=C1\c2ccc(F)cc2Sc2cc(F)c(Cl)cc21
-7	-0.3%	54%	0%	CCOC(=O)c1sc(C)c2c(=O)n(CCc3ccccc3)nnc12
.	0.4%	-4%	-1%	Cc1ccc(-n2nc3c(c2NC(=O)c2ccco2)CS(=O)(=O)C3)cc1
0	-1.4%	1%	-4%	O=S(=O)(c1ccc(Cl)cc1)N1CCN(Cc2c[nH]c3ccccc23)CC1
7	-3.3%	-2%	-29%	CN(C)c1cccc(C(=O)n2cc(C(=O)c3cc(F)ccc3O)cn2)c1
2	0.1%	-2%	-1%	O=C(NNC1=Nc2ccccc2SC1)c1ccccc1F

Next records follow:
GLA inh pH 4.5	Rango complex inh	Rango release inh	miR-21 reporter	Structure
8	-5.1%	-1%	4%	CC(C)N1CCC(N2CCN(C3CCCC3)CC2CCO)CC1 (configuration not stated)
.	?	?	.	Cc1ccc(C=NNc2ccc([N+](=O)[O-])cn2)cc1
.	?	?	.	CN(C)c1ccc(C=NNC(=S)Nc2ccc(F)cc2)cc1
1	-1.8%	4%	-24%	O=C(OCC(=O)N1CCc2ccccc21)c1ccccc1
.	4.0%	3%	.	COc1cc(-c2cc(C(=O)Nc3cc(S(=O)(=O)N4CCOCC4)ccc3O)c3ccccc3n2)cc(OC)c1OC
.	-0.7%	23%	-7%	C=CCOc1ccc(C2/C(=C(\O)c3ccc4c(c3)CC(C)O4)C(=O)C(=O)N2CCN2CCOCC2)cc1OCC (configuration not stated)

Screens deposited in PubChem by National Center for Advancing Translational Sciences (NCATS).

Only part of the results is shown, so the mix of outcomes need not match the whole.
